# Screens deposited in PubChem BioAssay by Fisher Drug Discovery Resource Center.
# NPYLR7 ag: agonists of mosquito NPYLR7 receptor, primary screen, cell-based, Aedes aegypti, calcium fluorescence, mosquito biting behavior | activation, % at 10 µM | hit rate 0.15% among 270,000 | HEK293T NPYLR7/Galpha15, GCaMP6s calcium fluorescence; in the data active = activation above about 40%;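 note: 0% = vehicle and 100% = reference agonist at the receptor; some compounds past the cut are filed as inactive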
# NPYLR7 ag max-min: second read-out of NPYLR7 ag, no call of its own (marks repeat the call); activation, %; measured here: Max-Min RFU normalised activation; some inactives read as strong as hits;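 span of the calcium signal over five minutes; 0% = vehicle and 100% = native peptide agonist; compound fluorescence can raise it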
# * = called active by the depositor; & = joins results of further samples. An excerpt. The share of hits here may be higher or lower than overall.
SMILES,NPYLR7 ag,NPYLR7 ag max-min
O=C(CCc1cc2c(n1-c1ccc(Cl)cc1)-c1ccccc1OC2)NCC1CCCCC1,2,0
Cc1ccc2[nH]nc(C(=O)NCC3CCCN(S(C)(=O)=O)C3)c2c1 (centres undefined),5,4
CCOC(=NC(=O)c1ccc(OC)cc1)N1CCN(C)CC1,-2,1
Cc1nn(CC(O)Cn2c(C)c(C)c3cccc(Cl)c32)c(C)c1Br (centres undefined),1,0
COc1ccc(CNC(=O)N2CCC(c3nnc(C(C)C)o3)CC2)cc1OC,-17,-20
COCC(=O)Nc1ccc(N(C)C)c(CN(CC2CC2)C(=O)c2cccc(F)c2)c1,1,9
Cc1ccc(I)cc1NC(=O)c1c(C(=O)O)cccc1[N+](=O)[O-],2,0
c1cncc(CSc2ccc(-c3ccc(-n4ccnc4)cc3)nn2)c1,-11,-5
CCC(C)NC(=O)C1CSCN1C(=O)c1ccc2cc[nH]c2c1 (centres undefined),8,5
CCOC(=O)N1CCN(C2CCCN(C/C(C)=C/c3ccco3)C2)CC1 (centres undefined),0,0
Fc1ccc(-c2nnc(CON=Cc3cccc(OCc4ccccc4)c3)o2)cc1,8,12
CCCCNC(=O)Cn1cc(-c2ccc(C)cc2)c(N2CCOCC2)n1,-10,-10
COc1cc(C=C2C(=O)Nc3cc(Cl)ccc32)cc(Cl)c1OC(F)F,13,13
COc1ccc(Cl)cc1C(=O)NNC(=O)CSc1nccn1-c1ccc(Br)cc1,1,0
O=C(NCC1CCCN(C(=O)c2ccsc2)C1)c1cccc2ccccc12 (centres undefined),4,3
O=C(c1n[nH]c2ccccc12)N1CCOC(COc2ccc(F)cc2)C1 (centres undefined),6,10
CSc1ccc(C(=O)CC(C)(C)C(=O)NCc2ccc(F)c(C(F)(F)F)c2)cc1,-7,-16
CC1(C(=O)NS(=O)(=O)c2ccc(C#N)cc2)CCN1C(=O)CCC1CCCC1 (centres undefined),4,3
N#Cc1ccc(CSc2nnc(-c3ccc(Cl)cc3)o2)cc1,8,6
CCCN(CC(=O)N(CCc1c[nH]c2ccccc12)Cc1ccc(OC)cc1)C(=O)Nc1ccc(Cl)cc1,-6,11
Cc1oc2c(c1C(=O)NCc1cccnc1Oc1ccccc1)C(=O)CCC2,2,2
CC(Cc1cccnc1)NC(=O)Cn1nnnc1CN1CCCCCC1 (centres undefined),0,-3
CC(C)NC(=O)N(CCN1CCOCC1)Cc1c(-c2ccccc2)noc1N1CCCC1,11,15
CC1=NC2=C(C(=O)CC(C)(C)C2)C(c2coc3ccccc3c2=O)C1C(=O)OC1CCCC1 (centres undefined),-2,-11
COC(=O)C(CC(C)C)NC(=O)CSc1nnc(Nc2ccccc2Cl)s1 (centres undefined),15,6

# Of the compounds above, these have bromine.
SMILES,NPYLR7 ag,NPYLR7 ag max-min
Cc1nn(CC(O)Cn2c(C)c(C)c3cccc(Cl)c32)c(C)c1Br (centres undefined),1,0
COc1ccc(Cl)cc1C(=O)NNC(=O)CSc1nccn1-c1ccc(Br)cc1,1,0

# Later entries:
SMILES,NPYLR7 ag,NPYLR7 ag max-min
CCSCCN(C(=O)c1nnc2nc(C)cc(C)n12)C1CCCCC1,4,1
CN(Cc1cn[nH]c1)C(=O)c1cc(-c2ccccc2F)on1,7,3
O=C(CNCc1ccccc1)N1CC(=O)N(c2cccc(Cl)c2)C1,46*,55*
COCCN(CC1CCCN(C2Cc3ccccc3C2)C1)C(=O)c1ccnn1C (centres undefined),3,0
O=C(CN1CN(c2ccccc2)C2(CCN(S(=O)(=O)c3ccc([N+](=O)[O-])cc3)CC2)C1=O)NCc1ccc2c(c1)OCO2,18,14
CC(C)Cc1noc(C(C)NC(=O)c2cnn3ccn(C)c23)n1 (centres undefined),-8,-10
O=C(Nn1cc([N+](=O)[O-])cn1)c1cccc(COc2ccc(Br)cc2)c1,5,1
O=C(CCc1ccccc1)N(CCN1CCOCC1)Cc1nccn1Cc1ccccc1Cl,3,20
COCc1nc(NCCN2CCc3ccccc32)c2cnn(C)c2n1,-5,-10
O=C(O)C1CCCCN1C(=O)OCc1ccccc1 (centres undefined),3,2
Cc1ccc(S(=O)(=O)N2CCn3cccc3C2C)cc1 (centres undefined),3,0
CCOC(=O)C1(Cc2cccc(OC)c2)CCCN(C(=O)c2cc(C)oc2C)C1 (centres undefined),4,1
C=CCS(=O)(=O)c1ccc(C)c(NCc2c(Cl)cccc2Cl)c1,1,4
Cc1cc(I)ccc1NC(=O)CCN1C(=O)c2cccc([N+](=O)[O-])c2C1=O,-7,-12
COc1cccc(CN2CCn3c(nnc3C(=O)NC(C)C)C2)c1F,7,5
O=C(O)c1cccc(S(=O)(=O)N2CCCc3cc(F)cc(F)c32)c1,5,3
CCC(C)NC(=O)c1cc(-c2ccccc2F)n2nc(C(C)(C)C)cc2n1 (centres undefined),-3,-4
CC1=C(c2ccc(C)cc2)S(=O)(=O)N=C1Nc1ccc(Br)cc1F,2,-1
Cc1csc(=O)n1CN(C)Cc1ccc(Cl)s1,2&5,-1&3
CCS(=O)(=O)N1CCN(c2nc(C)cc(Nc3ccc(C)cc3)n2)CC1,6,1
C[C@@H](C(N)=O)n1cnc(-c2ccccc2)c1-c1cccn1-c1nccs1,12,-3
O=C(O)c1cc(Oc2ccc([N+](=O)[O-])cc2)cc(Oc2ccc([N+](=O)[O-])cc2)c1,-10,-15
CCn1c(=O)c2c(nc3n(-c4cc(C)ccc4C)c(C)c(C)n23)n(C)c1=O,8,7
CCOC(=O)c1ccc(NC(=O)NC(C(=O)Nc2nnc(-c3cccc(Cl)c3)s2)C(C)CC)cc1 (centres undefined),13,11
O=S(=O)(Nc1cccc(-c2nnnn2C2CC2)c1)c1ccccc1F,15,16
SMILES,NPYLR7 ag,NPYLR7 ag max-min
O=C(C1CCN(c2ccccc2)C1=O)N1CCN(C/C=C/c2ccccc2)CC1 (centres undefined),-3,-9
Cc1ccc(-c2cn[nH]c2C2CCCN(C(=O)c3ccco3)C2)cc1 (centres undefined),-5,-1
Cc1cc(N2CCOCC2)nc(N2CCOCC2)n1,19,17
Cc1cc(Br)ccc1C(=O)N(C)CCNS(C)(=O)=O,1,0
CC(=O)OC[C@@]1(O)C[C@@]23CCC4c5ccoc5CC[C@]4(C)C2CC[C@@H]1C3 (some centres undefined),-9,-10
COCCn1cc(NC(=O)N2c3ccccc3CC2C)c2ccccc21 (centres undefined),11,3
CCN1CCN(C(=O)c2ccc(CSc3nnc(C)n3-c3ccc(C)cc3)cc2)CC1,4,15
Cc1ccc(C(=O)NCCc2ccccc2)cc1Oc1nc(Cc2ccc(F)cc2)ns1,26,35
Cn1nc(-c2cccs2)cc1C(=O)NCCc1nc(-c2ccccn2)no1,-6,6
CC(C)(C(N)=O)c1ccc(-c2cc(N)nc3[nH]ccc23)cc1,-4,-10
CCCC(=O)N1CCC(N2CCC3(CCOCC3)CC2)CC1,17,13
CC1=NC2=C(C(=O)CC(c3ccccc3)C2)C(c2cccc3ccccc23)C1C(=O)OC1CCCCC1 (centres undefined),-6,-5
Cc1cc(C(=O)N2CCCC(C(=O)c3cccc(C(F)(F)F)c3)C2)n[nH]1 (centres undefined),6,6
CCCNC(=O)CN(C)CC(=O)c1cc(C)n(Cc2ccccc2)c1C,4,3
COc1cccc(Oc2cnn(C)c(=O)c2Nc2ccc(C(=O)N3CCCC3)cc2)c1,4,11
Cn1c(NCC(C)(C)c2ccccc2)c(C#N)c(=O)n(C)c1=O,0,-2
CC1CC(Nc2ccccc2)c2ccccc2N1 (centres undefined),-10,-13
Cc1ccc(Oc2cc(C#N)c(C#N)cc2N2CCOCC2)cc1C,-2,-3
COc1cc(C=C(C#N)c2ccccn2)ccc1OCc1csc(C)n1,8,0
CCc1nc(C)c(C(=O)NC(C)c2cn3ccsc3n2)o1 (centres undefined),1,1
C=CCn1c(SCC(=O)c2[nH]c(C)c(C(=O)OC)c2C)nc2sc(C)c(C)c2c1=O,-8,-17
O=C(NNC1CC(=O)N(Cc2ccccc2)C1=O)c1ccccc1 (centres undefined),2,8
CCC1CCCN(C(=O)C2(C)CC2(Cl)Cl)C1 (centres undefined),6,3
CSc1ccc2nc(N3CCN(C(=O)C4CCCN4S(C)(=O)=O)CC3)sc2c1 (centres undefined),1,2
CC1CCCN(C(=O)C2CCN(C(=O)Nc3ccccc3)CC2)C1 (centres undefined),7,2
SMILES,NPYLR7 ag,NPYLR7 ag max-min
S=C1NC2(CCCCC2)N=C1c1ccccc1,20,12
CC(OC(=O)C1c2ccccc2Oc2ccccc21)C(=O)NCC1CCCCC1 (centres undefined),-6,-10
CN(C)S(=O)(=O)c1ccc2c(c1)CCN2,4,6
CCCCn1nnnc1COC(=O)c1nn(C)c(=O)c2ccccc12,6,1
CCCCN(Cc1cccn1Cc1cccc(C)c1)C(=O)CN(CCOC)C(=O)c1cccc([N+](=O)[O-])c1,4,18
Cc1cccc(OCc2nc(CN(CCN3CCOCC3)C(=O)c3ccccc3C)cs2)c1,-4,5
COc1ccc(CCN(C)S(=O)(=O)c2ccc(OC)c(N3CCN(S(=O)(=O)c4ccccc4C#N)CC3)c2)cc1OC,4,1
CCc1ccc(-c2cc3c(=O)n(Cc4nc(-c5ccc(OC)c(OC)c5)no4)ccn3n2)cc1,-3,-10
COc1ccc(-c2nc3cc(C)ccn3c2NC(=O)c2ccc(C(F)(F)F)cc2)cc1,-8,0
COc1cc(Br)cc2c1OC1(C)CC2NC(=O)N1c1ccc(C)c(Cl)c1 (centres undefined),-9,-13
CN(Cc1ccc2nsnc2c1)Cc1cc2n(n1)CCCNC2,-4,-10
COC(=O)C1[C@H]2C[C@H]3c4[nH]c5ccccc5c4CCN3C[C@@H]2CC[C@@H]1O (some centres undefined),-11,-13
COc1ccc(C(=O)N2CCCC(OCc3ccc(C(F)(F)F)cc3)C2)cc1 (centres undefined),-8,-1
CC[n+]1c(/C=C/C=C2/N(C)c3ccccc3C2(C)C)sc2ccccc21,35,-6
Brc1ccc(-c2nnc3sc(CNC4CCCC4)cn23)cc1,6,0
Cc1ccc(-c2cnn3c(N4CCOCC4)cc(C(C)(C)C)nc23)cc1,5,40
Cc1nc(-c2ccsc2)sc1C(=O)N(C)Cc1ccc(F)cc1F,7,4
CCOCCOc1nc(-c2ccc3c(c2)OCO3)n(-c2ccc(NC(=O)C3CCC3)cc2)n1,19,16
OCc1ccc(-c2cc(C3CCN(C/C=C/c4ccccc4)C3)ccn2)cc1 (centres undefined),3,-8
COc1ccc(CCNC(=O)CN(C2CCCCC2)S(=O)(=O)c2ccc(C)cc2)cc1,1,0
Cc1sc(C)c2c1C1CC(C)CCC1C2(C)C (centres undefined),-1,-1
Cc1ccc(CCC(=O)Nc2ccc3c(c2)CN(C(=O)C2=CCCCC2)CC3)cc1,5,3
CNC(c1ccc(Cl)cc1)c1ccc(Cl)cc1,-2,-2
COc1cc(C=C(C#N)C#N)ccc1OC(=O)c1ccc(Cl)cc1Cl,-7,-13
Cc1cccc(-c2ncc(CNCCc3cn4nc(C)sc4n3)cn2)c1,2,2
SMILES,NPYLR7 ag,NPYLR7 ag max-min
O=C(CC1c2cccnc2C(=O)N1c1c(Cl)cccc1Cl)NC1CC1 (centres undefined),4,16
O=C(Oc1ccc(-c2nc3ccccn3c2NC2CCCCC2)cc1)c1ccc(Cl)cc1Cl,7&-1,8&7
O=C(NCc1cccnc1-n1cnc2ccccc21)c1ccoc1,3,1
Cc1ccccc1CN(CCN1CCOCC1)Cc1cccn1Cc1cccc(C(F)(F)F)c1,-2,0
Cc1csc(CNC(=O)C(=O)Nc2ccc3c(c2)OC(F)(F)O3)n1,-2,-4
O=C(Nc1n[nH]c(Cc2ccccc2)n1)N1CCN(c2ccccn2)CC1,1,-1
O=[N+]([O-])c1ccc(C=Nc2ccc(N3CCCCC3)cc2)o1,7,5
CC(C)(C)OC(=O)N1CCN(c2ccc(N)c3cnccc23)CC1,-3,4
CN(C)c1ccc(NC(=O)c2sc(=S)[nH]c2N)cc1,-4,-11
O=C(NCc1nnnn1C1CCCCC1)c1ccc(F)cc1,2,-1
COc1ccc(-n2nc(-c3ccccc3)cc2NC(=O)c2ccc(OC(F)(F)F)cc2)cc1,12,1
CCOC(=O)C1(CCOc2ccccc2)CCCN(C(=O)/C=C/c2cnn(C)c2)C1 (centres undefined),4,4
CCC(C(=O)N(CCOC)CC(=O)N(Cc1cccn1Cc1ccccc1Cl)CC(C)C)c1ccccc1 (centres undefined),22,22
Cc1c(CO)cccc1NC(=O)CN1CC2(C)CC1CC(C)(C)C2 (centres undefined),-2,-4
COc1cccc(COC2CCCN(C(=O)COc3ccc(Cl)cc3)C2)c1 (centres undefined),-8,-2
O=C(NN=CC1C(=O)NC(=S)NC1=O)C1CCCCC1,10,6

# Arranged by heavy-atom count (highest first): some entries from above
SMILES,NPYLR7 ag,NPYLR7 ag max-min
CCC(C(=O)N(CCOC)CC(=O)N(Cc1cccn1Cc1ccccc1Cl)CC(C)C)c1ccccc1 (centres undefined),22,22
Cc1ccccc1CN(CCN1CCOCC1)Cc1cccn1Cc1cccc(C(F)(F)F)c1,-2,0
O=C(Oc1ccc(-c2nc3ccccn3c2NC2CCCCC2)cc1)c1ccc(Cl)cc1Cl,7&-1,8&7
CCOC(=O)C1(CCOc2ccccc2)CCCN(C(=O)/C=C/c2cnn(C)c2)C1 (centres undefined),4,4
COc1cccc(COC2CCCN(C(=O)COc3ccc(Cl)cc3)C2)c1 (centres undefined),-8,-2
Cc1cccc(-c2ncc(CNCCc3cn4nc(C)sc4n3)cn2)c1,2,2
O=C(CC1c2cccnc2C(=O)N1c1c(Cl)cccc1Cl)NC1CC1 (centres undefined),4,16
Cc1csc(CNC(=O)C(=O)Nc2ccc3c(c2)OC(F)(F)O3)n1,-2,-4
O=C(NCc1nnnn1C1CCCCC1)c1ccc(F)cc1,2,-1
O=C(NN=CC1C(=O)NC(=S)NC1=O)C1CCCCC1,10,6
CN(C)c1ccc(NC(=O)c2sc(=S)[nH]c2N)cc1,-4,-11
